hNpr1 antagonist = human Npr1 receptor antagonism; P16066; HEK293 hNpr1 GloSensor cGMP, ANP-stimulated luminescence; Potency, µM (series often up to 46.3 µM), inactives show at the highest dose activity change, negative = inhibition, actives largely listed as inhibitors; 1.6% of 76,000 active; active = well fitted inhibition curve with a large enough effect; inconclusive = small, poorly fitted or top-dose-only effect; inactive = no such curve, though single readings can be large or run the other way;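 also: nearly all actives have a fitted effect of over 60% in size; nearly all hits also lower the signal before the agonist is added; a reference antagonist and vehicle were the controls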
Target sequence (P16066 whole entry, looked up): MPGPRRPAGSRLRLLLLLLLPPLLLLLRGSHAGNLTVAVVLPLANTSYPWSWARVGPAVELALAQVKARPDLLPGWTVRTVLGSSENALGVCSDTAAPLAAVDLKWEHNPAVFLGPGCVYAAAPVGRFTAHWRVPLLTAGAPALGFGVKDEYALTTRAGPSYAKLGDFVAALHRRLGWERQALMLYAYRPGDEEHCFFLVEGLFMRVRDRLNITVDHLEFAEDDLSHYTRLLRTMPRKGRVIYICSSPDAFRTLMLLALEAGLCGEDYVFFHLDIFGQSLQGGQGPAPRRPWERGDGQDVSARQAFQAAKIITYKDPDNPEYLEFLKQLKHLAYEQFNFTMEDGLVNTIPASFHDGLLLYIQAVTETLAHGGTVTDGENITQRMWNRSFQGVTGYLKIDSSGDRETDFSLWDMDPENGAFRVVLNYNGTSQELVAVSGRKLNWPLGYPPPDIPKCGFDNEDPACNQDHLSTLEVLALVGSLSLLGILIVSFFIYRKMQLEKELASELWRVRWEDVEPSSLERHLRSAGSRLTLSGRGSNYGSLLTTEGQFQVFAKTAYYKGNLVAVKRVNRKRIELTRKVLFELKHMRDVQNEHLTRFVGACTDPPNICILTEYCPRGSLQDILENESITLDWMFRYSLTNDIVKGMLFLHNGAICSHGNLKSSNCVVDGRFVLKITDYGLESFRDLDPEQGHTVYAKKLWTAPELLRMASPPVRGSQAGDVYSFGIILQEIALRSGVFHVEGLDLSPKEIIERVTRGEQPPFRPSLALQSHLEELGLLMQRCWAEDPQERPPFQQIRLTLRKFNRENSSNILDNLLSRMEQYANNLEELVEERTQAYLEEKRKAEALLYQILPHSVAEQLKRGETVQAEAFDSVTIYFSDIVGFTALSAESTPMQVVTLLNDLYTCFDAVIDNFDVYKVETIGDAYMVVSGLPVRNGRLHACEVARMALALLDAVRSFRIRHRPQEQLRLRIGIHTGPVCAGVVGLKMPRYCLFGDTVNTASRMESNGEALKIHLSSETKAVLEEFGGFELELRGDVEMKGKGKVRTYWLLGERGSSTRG
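Compound pre-incubated 30 min at room temperature on GloSensor-loaded HEK293 cells stably carrying hNpr1 and the pGS-40F cGMP biosensor. Stimulation uses hNppA at 0.1 nM final; luminescence is taken at baseline and 20 min post-agonist.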
* = called active by the depositor; ? = inconclusive; [ ] = remark or other dose. % is scaled to controls: 0 for no effect and ±100 for the full control effect; potency is read from the fitted curve at half-maximal effect.

hNpr1 antagonist,SMILES
-8%,Cc1ccc(N2CC(c3noc(-c4ccc5c(c4)OCO5)n3)CC2=O)cc1 (centres undefined)
4%,O=C(O)C1CNCCN(C(=O)c2nc3ccc(F)cc3[nH]2)C1 (centres undefined)
7%,COCc1nnc(NC(=O)C2CC(=O)N(c3n[nH]c4ccccc34)C2)s1 (centres undefined)
8%,CS(=O)(=O)N1CCC(CC(=O)N2CCN(C3CCCC3)CC2)C1 (centres undefined)
0%[70.6 µM],COc1ccc(CN2C[C@@H](F)[C@@H](OCc3nc4ccccc4n3C)C2)cn1
?,COc1cccc(N2CCN(Cc3cn(-c4ccccc4)nn3)CC2(C)C)c1
1%,CCn1ccc(C(=O)N2CCCCCCNC(=O)CC2)n1
-2%,CCOCCCNC(=O)CCC1CCN(C(=O)c2ccccc2)CC1
1%,COc1ccccc1-n1cc(C(=O)N2CCCC2c2nonc2C)cn1 (centres undefined)
3%,COc1ccc(CNC(=O)C[C@@H]2CCNC[C@@H]2Cc2cc(COc3ccccc3)on2)cc1OC
?,O=S(=O)(NC[C@H]1COCc2nc3cc(F)ccc3n21)c1ccccc1
4%,C[C@]1(CO)[C@H]2Cc3sc(NC(=O)c4ccco4)nc3[C@@H](CC(=O)NC3CC3)[C@]2(C)CC[C@H]1O
-1%,COCc1nc(C2CC(N)C2)cc(N(C)Cc2nc3ccccc3c(=O)[nH]2)n1 (centres undefined)
-6%,O=C(C1COc2ccccc2O1)N1CCc2c(nc3cc(-c4ccccc4)[nH]n3c2=O)C1 (centres undefined)
0%,CCO[C@H]1CN(C(=O)c2cccnc2SCCc2ccccc2)C[C@@H]1O
6%,CCc1csc(CNC(=O)c2ccc(N3C[C@@H](C)O[C@@H](C)C3)nc2)n1
1.1µM*,Cc1ccc(C(=O)N2CCC(Cc3nc(-c4ccc(F)cc4)no3)CC2)cn1
6%,COc1cc(C)ccc1OCC(=O)c1ccc2c(c1)N(CCCC(=O)NCC1CC1)C(=O)CO2
-1%,Cc1cccc(=O)n1CCC(=O)N1CCCC2(CCC(=O)N(C3CC3)C2)C1 (centres undefined)
0%,CN1CCC(NC(=O)c2n[nH]c3c2CN(C(=O)c2ccccc2Br)CC3)CC1
4%,Cc1nc2ccc(C(=O)N3CCCn4nc(CO)cc4C3)cc2o1
-5%,Cc1cc(=O)n(CC(=O)Nc2ccccc2)c(-c2ccccc2)n1
5%,CCc1ccc(C(=O)N2CCCN(c3nnc4ccccn34)CC2)cc1
0%[70.6 µM],O=C1NCCCN1C1CCN(Cc2cccc(C(F)(F)F)c2)CC1
0%,COc1ccc(C2Cn3nnc(C(=O)N4CCC(C(=O)NCc5ccccc5)CC4)c3CO2)cc1 (centres undefined)
-3%,CCOC(=O)c1ccc(NC(=O)N2Cc3[nH]cnc3C[C@H]2c2nc(-c3ccc4c(c3)OCO4)no2)cc1
-2%,NC(=O)[C@@H]1C[C@H](Oc2cccnc2)CN1S(=O)(=O)c1ccccc1
1%,Cn1c(CNC(=O)CCC[C@@H]2[C@H]3CCCN4CCC[C@@H](CN2Cc2ccccc2)[C@@H]34)nc2ccccc21
7%,COc1cccc(C(=O)N2CCCCCC2c2nnc(C)o2)c1 (centres undefined)
5%,Cc1ccc(C(=O)N2C[C@@H]3CCCN4CCC[C@@H]([C@H]34)[C@H]2CCCC(=O)Nc2ccccc2)cc1
1%,CC(c1nn[nH]n1)n1cc(-c2cc3c(cc2Cl)OCO3)nn1 (centres undefined)
-3%[70.6 µM],CNC(=O)c1cnc2c(c1)N(C(=O)Cc1cccc(C(F)(F)F)c1)CCC2
0%,CCOc1ccccc1CNC(=O)c1cc2sc(C)c(CN3CCOCC3)c2[nH]1
1%,O=C(c1cnc(C2CC2)nc1)N1CCC2(CCNCC2CO)CC1 (centres undefined)
-1%,CCCCC1C=CCN1C(=O)c1cc(COc2ccc(F)cc2F)[nH]n1 (centres undefined)
?,O=C(c1n[nH]c2ccccc12)N1CCC(OCCOc2cccnc2)CC1
1%[70.6 µM],COc1ccc(CNC(=O)c2nc(-c3ccccc3OC)cc3c2ccn3C)cc1OC
-1%[70.6 µM],CC(=O)N1CC2(Cc3ccccc31)CN(C(=O)N(C)C)C2
2%,Cc1ccc(NC(=O)Cn2c(N3CCOCC3)nc(C)cc2=O)c(Cl)c1
-2%,CN(Cc1cccc2ccccc12)C(=O)c1cc(CN2CCOCC2)on1

A run of entries of the results above:
hNpr1 antagonist,SMILES
-8%,Cc1ccc(N2CC(c3noc(-c4ccc5c(c4)OCO5)n3)CC2=O)cc1 (centres undefined)
4%,O=C(O)C1CNCCN(C(=O)c2nc3ccc(F)cc3[nH]2)C1 (centres undefined)
7%,COCc1nnc(NC(=O)C2CC(=O)N(c3n[nH]c4ccccc34)C2)s1 (centres undefined)
8%,CS(=O)(=O)N1CCC(CC(=O)N2CCN(C3CCCC3)CC2)C1 (centres undefined)

More compounds:
hNpr1 antagonist,SMILES
4%,O=C(c1cccc(F)c1)N1CCC2(CC1)N=C(c1ccccc1)NO2
0%[70.6 µM],COc1ccc(-c2noc([C@@H](C)NS(=O)(=O)CC(C)C)c2C(=O)O)cc1
-24%,O=C(c1cnn2c1CCCC2)N1CCC(c2[nH]ncc2-c2ccccc2)CC1
-11%,Cc1noc(C)c1CC(=O)NC1CCCc2c1[nH]c1c(Cl)cccc21 (centres undefined)
1%,CCN(Cc1ccccc1)C(=O)CC1C(=O)NCCN1CCc1ccccc1 (centres undefined)
4%[70.6 µM],COCc1ccc2c(c1)c(OC(C)(C)C(=O)NCC[S+](C)(=O)[O-])nn2CCC(C)C
0%,Cc1ccncc1C(=O)N1CC(c2nnc(-c3ccncc3)o2)C2(CCOCC2)C1 (centres undefined)
4%,COc1ccc(OC)c(NC(=O)N2C[C@@H](F)C[C@H]2C(=O)N2CCCCC2)c1
-1%,Cc1noc(Cc2c(C)nn(-c3ccccc3)c2C)n1
-11%,O=C(C1CC1)N1CCC2(CC1)SCC(=O)N2c1ccc(F)cc1
0%,Cc1ccc(-c2nc(C(=O)NCc3ccccc3Cl)no2)cc1
1%,CC(C(=O)NCC1CC1)N1C(=O)COc2ccc(C(=O)COc3ccccc3Cl)cc21 (centres undefined)
-11%[70.6 µM],COc1cncc(NC(=O)C2=NO[C@@H]3CN(Cc4cccc(F)c4)C[C@H]23)c1
0%,COC(=O)[C@@H]1Cc2c([nH]c3ccccc23)[C@H]2C[C@H](NC[C@H]3CCCO3)C[C@@H](c3ccccc3F)N21
-13%,COCCNC(=O)c1ccc(OC2CCN(Cc3ccc(OC)cc3F)CC2)c(Cl)c1
-12%,CN1CCN(C(=O)NCc2cccc(F)c2)CC12CCNC(=O)CC2 (centres undefined)
0%,Cc1cccc(-c2cn[nH]c2C2CCN(C(=O)c3ccccc3OC(F)F)CC2)c1
-2%,COC(=O)[C@@H]1Cc2c([nH]c3ccccc23)[C@H]2C[C@@H](NCCN3CCOCC3)C[C@@H](c3ccc(F)cc3)N21
-5%,Cc1cc(C(=O)N2c3ccccc3CC2c2nc(C(C)C)no2)nn1C (centres undefined)
1%,CCCc1cc(C(=O)N[C@@H]2CCOC[C@H]2OCCO)n(C)n1

Look-ups from the results shown.
COCc1ccc2c(c1)c(OC(C)(C)C(=O)NCC[S+](C)(=O)[O-])nn2CCC(C)C in hNpr1 antagonist: 4%[70.6 µM]
Cc1ccc(-c2nc(C(=O)NCc3ccccc3Cl)no2)cc1 in hNpr1 antagonist: 0%

Next structures:
hNpr1 antagonist,SMILES
-4%[70.6 µM],CCN(CC)C(=O)CC[C@@H]1CNC(=O)[C@@H]2C[C@H](NCc3cccc(Cl)c3)CN12
-1%,Cc1nc(N2CCC(N[C@H]3Cc4ccccc4[C@@H]3N)CC2)c2ccsc2n1
0%,CCn1c(Cn2ccnc2)nnc1C1CCN(C(=O)C(C)(C)OC)CC1
3%[70.6 µM],O=C1NC2(CCCN(CC3CCCC3)C2)Oc2ccccc21 (centres undefined)
0%,Cn1ncc(N2CCC(CNC(=O)c3ccn(C(C)(C)C)c3)C2)cc1=O (centres undefined)
-13%,CC(NC(=O)Cc1cccn1-c1ccc(Cl)cc1)c1cccnc1 (centres undefined)
6%[70.6 µM],COc1ncccc1-c1ccc2ncn(Cc3ccccn3)c(=O)c2n1
?,CCOc1ccc(C(=O)N2CCN(c3cc(-c4cccs4)[nH]n3)CC2)cc1
?,CS(=O)(=O)c1ccc(CN2CC[C@@H](c3ccc4ccccc4c3)[C@H](O)C2)cc1
-6%,Cc1noc(C)c1C(=O)N1CCCC(CCc2ccc(F)cc2F)C1 (centres undefined)
0%[70.6 µM],CN1C[C@@H](NC(=O)c2ccc(F)cc2)C[C@H]1c1nc(-c2cncnc2)no1
10%,COc1ccc(-c2nc(C(C)C)nc3c2CCN(C(=O)N(C)C)CC3)cc1
?,CN(C)c1ccc(-c2nc(C3CCOC3)no2)cc1 (centres undefined)
0%[70.6 µM],CC(=O)N1CCC2(CC1)C(=O)NN=C2c1ccccn1
0%,CCc1ccc(NC(=O)Cn2c(C)ccc(NS(=O)(=O)c3ccccc3)c2=O)cc1
6%,CCc1noc(-c2nc(Cc3ccccc3C)no2)n1
11µM*,O=C(c1cccs1)N1CCC2(CC1)CC(Cc1ccc(F)cc1)CCO2 (centres undefined)
0%,COc1cccc(C(=O)N2CCC(c3n[nH]c(=O)n3-c3ccccc3)CC2)c1
6%[70.6 µM],COCCC(=O)N[C@H]1CC[C@]2(C)CCC([C@H](C)C(=O)N3CCCCC3)[C@H](O)[C@H]2[C@@H]1C (some centres undefined)
5%,Cc1cnc(C(=O)N2CC(F)(F)C[C@H]2c2nnc(C3CC3)o2)cn1
1%,CC(C)C(=O)NCCC1CCN(C(=O)Nc2cc(F)cc(F)c2)CC1
0%,COc1cccc(CNC(=O)[C@@H]2C[C@@H](O)CN2C2CCN(C(=O)c3ccncc3)CC2)c1
10µM*,COc1ccc(CCC(=O)N2CCC(Cc3nc(-c4ccccc4)no3)CC2)cc1
2%[70.6 µM],CN(Cc1ccccc1)C(=O)c1ccnc(-c2nnc3ccc(N4CCOCC4)nn23)c1
-1%[70.6 µM],O=C(NC[C@H]1Cn2c(-c3ccccc3)cnc2CO1)c1cnccn1
-4%,CCOc1cc(=O)n2c(c1C(=O)N1CCN(C3CCCCC3)CC1)CCCCC2
29%,CCOc1ccccc1CN1CCC2(CCN(C(=O)COC)CC2)Oc2ccccc21
-1%,O=C1NC2(CCN([S+](=O)([O-])c3cccc(C(F)(F)F)c3)C2)COc2ccccc21 (centres undefined)
6%,CCN1CCN(c2nc3c(s2)CN(Cc2ccccn2)CC3)CC1
2%[70.6 µM],CN1CCOc2c(C(=O)NCCN3CCNC3=O)cc(-c3cccnc3)cc21
-1%[70.6 µM],CC(C)NC(=O)C1CCCN1c1nc2ncccc2o1 (centres undefined)
-2%[70.6 µM],CN(Cc1ccccc1)Cc1cn([C@H]2CO[C@H]3[C@@H]2OC[C@@H]3NCc2ccccc2)nn1
2%,CCOCc1nc(C2CCCN(C(=O)Cc3cccc(F)c3)C2)no1 (centres undefined)
-2%,COc1ccc2[nH]c(C(=O)N3CCC4(CC3)c3nc[nH]c3CCN4C)cc2c1
6%,CCOc1ccc(C(C)NC(=O)C2CCCN(c3cnc4nccnc4c3)C2)cc1 (centres undefined)
6%,CCO[C@H]1CN(C(=O)Cc2nc(C)sc2C)C[C@@H]1O
-8%,O=C(NCCc1nc2ccccc2[nH]1)C1CC(=O)N(c2n[nH]c3ccccc23)C1 (centres undefined)
-1%[70.6 µM],CC(C)N1C[C@H](O)C[C@H]1c1nc(-c2ccc(C(F)(F)F)cc2)no1
3%,CN(CC1CCOC1)S(=O)(=O)c1ccccc1C(F)(F)F (centres undefined)
-9%,Cn1nc(C(=O)NC[C@@H]2C[C@H](F)CN2)cc1-c1cccs1

Another view of 7 compounds above:
| SMILES | hNpr1 antagonist |
| --- | --- |
| Cc1ccc(C(=O)N2C[C@@H]3CCCN4CCC[C@@H]([C@H]34)[C@H]2CCCC(=O)Nc2ccccc2)cc1 | 5% |
| CCCCC1C=CCN1C(=O)c1cc(COc2ccc(F)cc2F)[nH]n1 (centres undefined) | -1% |
| CCO[C@H]1CN(C(=O)Cc2nc(C)sc2C)C[C@@H]1O | 6% |
| CCOc1ccccc1CN1CCC2(CCN(C(=O)COC)CC2)Oc2ccccc21 | 29% |
| Cc1ccc(NC(=O)Cn2c(N3CCOCC3)nc(C)cc2=O)c(Cl)c1 | 2% |
| COc1ccc(-c2noc([C@@H](C)NS(=O)(=O)CC(C)C)c2C(=O)O)cc1 | 0%[70.6 µM] |
| CS(=O)(=O)c1ccc(CN2CC[C@@H](c3ccc4ccccc4c3)[C@H](O)C2)cc1 | ? |

New compounds follow:
hNpr1 antagonist,SMILES
-2%,COCc1noc([C@@H]2CN(C(=O)Cc3ccccc3)C[C@H]2CO)n1
0%[70.6 µM],O[C@@H]1C[C@@H](c2nc(-c3ccc(F)cc3)no2)N(CC2CCCCC2)C1
?,Cc1cc(C)n(CCC(=O)N2CC(Oc3cccc(-c4nc(-c5ccccc5)no4)c3)C2)n1
-9%,O=C(c1cccc(F)c1)N1CCCC(Cc2noc(-c3ccccc3)n2)C1 (centres undefined)
4%,CC1CCC(NC(=O)CN2C(=O)NC3(CCCCC3)C2=O)CC1 (centres undefined)
-4%,CCOc1ccc(NC(=O)N2CCN(C)C3(CCC(=O)N(C)CC3)C2)cc1 (centres undefined)
1%,CN1CCC(N[C@H]2CC(C)(C)[C@@H]3C[C@@](C)(O)CC[C@]23CCC(=O)N2CCOCC2)CC1
1%,Cc1ccc(OCCC2CCN(C(=O)CC(F)(F)F)C2)cc1 (centres undefined)
15%,CC(C)(C)CCN1CC(Oc2cccc(C(=O)N3CCOCC3)c2)C1
2%,CC(C)c1ccccc1NC(=O)Cn1cccc1-c1nc(-c2ccccc2)no1

An excerpt, so the mix of outcomes need not match the whole.
